Screens: PubChem BioAssay, National Center for Advancing Translational Sciences (NCATS)
gsp antag: antagonists of gsp mutant (McCune-Albright syndrome) | 0.4% of 340,000 active | AID 624288 | Potency, µM (doses to about 76.9 µM), for inactives: at the highest dose activity change, negative = inhibition, usual class: inhibitors | gsp-mutant cells, cAMP HTRF, 30 min; control for the full effect not named in the record; active = falling curve of any shape with a large fitted effect; inconclusive = falling curve, mostly with a smaller effect; inactive = flat or rising curve; cell line not stated here;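 note: intracellular cAMP measured with PDE inhibitor Ro 20-1724 present during compound exposure; potency is the fitted concentration of half-maximal effect; % is set by controls: 0 for no effect and ±100 for the full control effect; nearly all actives have a fitted effect of over 65% in size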
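G418-selected cells were plated in DMEM/10% FBS for 16-24 h at 37C, then treated with compounds plus the PDE inhibitor […] (300 uM solution added) for 30 min at 37C. Intracellular cAMP was measured by HTRF after 30 min lysis at room temperature.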
PINK1 expr mod: changes PINK1 expression. PINK1 immunofluorescence, high-content cytometry, 24 h. Potency, µM (series often up to 76.6 µM), without a hit: at the top dose activation (PINK1 increase), actives largely listed as activators. 0.2% of 410,000 active. AID 624263; active = well fitted activation curve with a large enough effect; inconclusive = small, poorly fitted or top-dose-only effect; inactive = flat fitted curve, though single readings scatter; cell line not stated here;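 note: potency is the fitted concentration of half-maximal effect; % of control where 0% means no effect; nearly all actives have a fitted effect of over 65% in size; a mitochondrial uncoupler was the plate control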
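Fluorescence from anti-PINK1 antibody, together with nuclear and cell stains, was scanned on a laser-scanning cytometer. Before staining, stable-line cells were incubated 24 hours with compounds at 5 concentrations; primary antibody 12 h at 10 degrees C.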
Sfp PPTase inh: Sfp phosphopantetheinyl transferase inhibition. Biochemical Sfp PPTase activity, qHTS. Q9F4F7. 3.5% of 310,000 active. Potency, µM, inactives show max response, negative = inhibition, most hits filed as inhibitors; active = well fitted inhibition curve with a large enough effect; inconclusive = small, poorly fitted or top-dose-only effect, or another doubt; inactive = no such curve, though single readings can be large or run the other way;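 note: the enzyme is Sfp with the accession as filed and its product quenches rhodamine fluorescence; potency is the fitted concentration of half-maximal effect; 0% = enzyme reaction without inhibitor and -100% = no enzyme wells; top concentration of the series not given in the record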
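Sfp 15 nM + cpd, 15 min RT; start w/ rhodamine-CoA 5 uM, BHQ-2-YbbR 12.5 uM (final); 50 mM Hepes pH 7.6, 10 mM MgCl2, 0.01% NP-40, 0.01% BSA; read 525/598 nm at 0 and 30 min.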
Menin MLL FP FL: displaces fluorescein MLL peptide from human menin | Fluorescence polarization, fluorescein-MLL peptide displacement from menin | 290,000 tested, under 10 active | AID 1766 | FP activity change, % at 61.4 µM; inconclusive = falling polarisation curve, or a change in total fluorescence; inactive = total fluorescence flat and polarisation flat or rising; no compound was filed as active; the % refers to the polarisation; negative = inhibition;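 note: % of control where 0% means no effect; inhibitors lower the polarisation; unlabelled MLL peptide was the positive control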
D2 ag: activates the human D2 dopamine receptor; P14416; DiscoveRx PathHunter D2 beta-arrestin, luminescence, 90 min; 100% = 57 uM dopamine signal; activation, % (test concentration not listed); 0.084% of 360,000 active; AID 624465; in the data active = activation above about 40%; inconclusive = about 15% to 40%; inactive = below about 15%; note: compound concentration not given in the record; the text of the record calls up to 30% inactive
Target sequence (P14416 whole entry, looked up): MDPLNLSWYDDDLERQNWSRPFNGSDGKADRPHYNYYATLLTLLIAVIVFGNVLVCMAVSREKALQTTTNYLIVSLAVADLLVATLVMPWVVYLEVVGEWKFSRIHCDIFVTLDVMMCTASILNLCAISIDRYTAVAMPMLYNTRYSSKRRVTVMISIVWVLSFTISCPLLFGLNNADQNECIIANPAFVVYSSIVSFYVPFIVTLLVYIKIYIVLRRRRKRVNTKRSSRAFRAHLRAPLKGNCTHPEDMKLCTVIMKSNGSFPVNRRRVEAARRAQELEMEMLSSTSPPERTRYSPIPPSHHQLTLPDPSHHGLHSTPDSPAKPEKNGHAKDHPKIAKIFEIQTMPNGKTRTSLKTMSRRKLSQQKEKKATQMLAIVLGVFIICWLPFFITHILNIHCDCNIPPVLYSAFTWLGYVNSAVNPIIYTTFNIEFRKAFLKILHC
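Agonist mode: compounds alone added to overnight-plated D2 PathHunter cells for 90 min at 37 C, with 57 uM final dopamine (EC100) defining full response. Beta-arrestin recruitment detected by chemiluminescent reagent, read after 1 h at ambient temperature.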
gsp agonist: activates gsp, the McCune-Albright syndrome mutation | gsp mutant cells, cAMP HTRF, 30 min; control for the full effect not named in the record | Potency, µM (highest dose often 76.9 µM), for the others: at the top dose activation (cAMP increase), usual class: activators | 0.13% of 340,000 active | AID 624287; active = well fitted activation curve with a large enough effect; inconclusive = small, poorly fitted or top-dose-only effect, or another doubt; inactive = no such curve, though single readings can be large or run the other way; cell line not stated here;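 note: phosphodiesterase inhibitor Ro 20-1724 added with compounds to block cAMP breakdown; potency is the fitted concentration of half-maximal effect; nearly all actives have a fitted effect of over 60% in size; about a fifth of the inactives were tested at one dose only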
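Cells stably selected in G418 were plated at 2000/well, grown 16-24 hr, then given compounds in DMSO with the PDE inhibitor […] (300 uM solution added) for 30 min at 37C; cAMP was read by HTRF.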
ClpP mod: qHTS Assay for Activators of ClpP; Potency, µM (titrated, usually from 57.5 µM), for inactives: top-dose activity change, negative = active; purified B. subtilis ClpP, FRET peptide cleavage, 20 min; AID 651965, 2013; ATP-dependent Clp protease proteolytic subunit (Bacillus subtilis (strain 168)), P80244; 1.9% of 340,000 active; active = well fitted falling curve with a large enough effect; inconclusive = small, poorly fitted or top-dose-only effect; inactive = no such curve, though single readings can be large or run the other way; note: potency is the fitted concentration of half-maximal effect; the source files actives as falling curves though it sought activators and does not explain the sign; nearly all actives have a fitted effect of over 65% in size; many hits overshoot -100%
Target sequence (P80244 whole entry, looked up): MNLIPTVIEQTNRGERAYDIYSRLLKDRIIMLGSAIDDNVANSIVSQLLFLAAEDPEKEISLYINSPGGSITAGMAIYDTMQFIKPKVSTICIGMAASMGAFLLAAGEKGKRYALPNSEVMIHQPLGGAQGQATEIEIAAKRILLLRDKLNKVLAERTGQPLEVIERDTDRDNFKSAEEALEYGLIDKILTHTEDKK
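ClpP 10 microg/mL final, pH 8 Tris/KCl buffer with BSA, glycerol, Tween-20; compound pinned in; FRET-FV substrate; RT 20 min; Ex320/Em430; ΔFRET vs ADEP 5.8 microM, DMSO, no enzyme.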
An asterisk follows results filed as active; u = inconclusive; x = not tested or not shown; & = joins results of further samples; [ ] = remark or other dose. The order is random; any-hit rate near 5.1%.

no.	SMILES	gsp agonist	Sfp PPTase inh	Menin MLL FP FL	gsp antag	PINK1 expr mod	D2 ag	ClpP mod
1	COc1ccc(C(=O)NC(C)c2csc(C)n2)cc1OC1CCN(C(C)=O)CC1 (stereo unspecified)	u	17%	0.0	-2%	-0.6%	-0.9	0.0%
2	CC(C)N1C(=O)C(Cc2nc3ccccc3c(=O)n2-c2ccccc2)c2ccccc21 (stereo unspecified)	-46%[inhibitor]	-20%	7.4	-11%	-3.3%[38.3 µM]	-0.6	-2.4%
3	Cc1cc(NC(=O)CCCN2C(=O)c3cccc4cccc(c34)C2=O)no1	2%[15.4 µM]	6%	0.7	-39%	6.3%	-5.9	x
4	COC(=O)CC1C(=O)NCCN1C(=S)Nc1cccc(C(F)(F)F)c1 (stereo unspecified)	-36%[inhibitor]	-7%	0.0	4%	-1.2%	-4.7	0.4%
5	O=C(N/N=C/CCc1ccccc1)C1CCCCC1	10%	-12%	0.1	3%	-1.8%	2.3	0.5%
6	FC(F)(F)c1ccc(N2CCN(c3ncnc4c3nnn4Cc3ccccc3)CC2)nc1	17%	18%	-1.8	4%	11µM*	-0.2	u
7	O=C1c2ccccc2S(=O)(=O)N1CCOc1ccccc1	22%	-1%	-2.5	-12%	17%[38.3 µM]	-0.8	-0.3%
8	CCOc1ccccc1NC(=O)CN1CCC(NC(=O)c2ccccc2)CC1	u	19%	1.3	-2%	2.3%	-3.0	-3.7%
9	Cc1cc(C(=O)CSc2ccc3c(c2)OCCO3)c(C)n1C1CC1	8%[15.4 µM]	-18%	-1.5	-5%	2.9%	-3.5	-2.6%
10	O=C(O)c1ccccc1SCc1cn2cc(Br)ccc2n1	10µM*	-13%	-1.6	26%	1.3%	4.8	x
11	CC1CCN(S(=O)(=O)c2cccc(C(=O)NCc3cccs3)c2)CC1	-24%	13%	-3.1	-11%	0.9%	-0.3	0.2%
12	CCOc1ccc(/C=N/NC(=O)c2ccccc2Cl)cc1CN1CC2CC(C1)c1cccc(=O)n1C2 (stereo unspecified)	x	x	x	u	2.1%	1.2	-4.2%
13	CCN(CC)c1ncnc2c1ncn2[C@H]1CN(Cc2ccc3c(c2)OCO3)C[C@@H](CO)O1	x	x	x	x	0.6%	-7.3	-2.2%
14	Cc1cc(C)cc(NC(=O)N2CCC(NC(=O)c3ccc(F)cc3)CC2)c1	-17%	2%	3.5	5%	-2.8%	-8.7	0.4%
15	CC(=O)Nc1ccc(NC(=O)C2CCCN(C(=O)c3ccc(Cl)cc3)C2)cc1 (stereo unspecified)	19%[15.4 µM]	9%	-1.2	-6%	-0.3%	-4.2	x
16	CC(C)NC(=S)N/N=C/c1cccnc1	18%	-24%	1.3	4%	1.5%	-2.5	x
17	CCc1nc2c(OCCOc3ccccc3)cccn2c1N(C=O)Cc1ccc(OC)cc1	x	x	x	x	0.9%	6.9	-3.9%
18	C/C(=N\N=C1\NC(=O)C(CC(=O)Nc2ccc(C)c(Cl)c2)S1)C(C)(C)C (stereo unspecified)	6%[15.4 µM]	25%	0.2	-2%	-0.3%	-2.1	x
19	C=CCOC(=O)C1=C[C@H](c2ccc(Br)cc2)[C@@H](CCCO)[C@H](OCC)O1	-6%	9%	0.0	u	1.8%	5.2	8.4%
20	O=C(Nc1ncc([N+](=O)[O-])s1)C1CCN(S(=O)(=O)c2cnc[nH]2)CC1	-8%	0%	1.4	6%	-0.2%[38.3 µM]	-4.5	0.2%
21	NS(=O)(=O)c1ccc(CCNC(=O)c2ccc3c(c2)OCCO3)cc1	1%[15.4 µM]	16%	0.2	-1%	0.2%	-3.1	x
22	COC(=O)c1sccc1NC(=S)Nc1ccc(OC)cc1	6%[15.4 µM]	-15%	3.4	-8%	0.3%	0.4	x
23	Cc1cc(NC(=O)c2ccc(F)cc2)n(C)n1	u	9%	-0.2	7%	1.5%	-4.9	-0.1%
24	COc1ccc(NC(=O)NCc2ccc3c(c2)OCO3)c(OC)c1	-1%	9%	2.4	-2%	8.3%	-0.9	-2.6%
25	Cc1ccc(C(=O)N2CCN(c3ccc(C(F)(F)F)cn3)CC2)cc1	-5%	9%	2.6	-2%	-0.4%	0.0	u
26	Cc1cccc(NC(=S)NN(Cc2ccccc2)c2ccccc2)c1C	-8%	12%	3.6	7%	0.4%	-3.6	-0.9%
27	N#Cc1c2n(c3c(=O)n(CC(=O)c4ccc([N+](=O)[O-])cc4)cnc13)CCCCC2	u	1%	-0.2	11%	-1.3%	1.8	-1.7%
28	CCCc1cc(C(=O)NNC(=S)NCC2CCCO2)cs1 (stereo unspecified)	3%[15.4 µM]	7%	-2.6	20%	0.1%	-7.1	-1.1%
29	CC(C)(C)C(=O)C(Oc1cccc2nonc12)n1cncn1 (stereo unspecified)	-11%	11%	2.2	19%	x	-0.1	-3.6%
30	CC(C)(C)c1ccc(S(=O)(=O)/C=C/C#N)cc1	x	x	3.1	x	0.7%	x	1.1%

Additional results.
no.	SMILES	gsp agonist	Sfp PPTase inh	Menin MLL FP FL	gsp antag	PINK1 expr mod	D2 ag	ClpP mod
31	COC(=O)c1sc(-c2ccccc2)cc1NC(=O)c1ccccc1	3%	-11%	2.1	13%	10%	-1.5	-6.6%
32	COc1ccc(OCC(=O)N2CCN(C(=O)Cc3ccccc3)CC2)cc1	-9%	2%	3.4	-1%	-4.1%[38.3 µM]	1.7	-9.6%
33	Cc1nc2c([nH]c3ccccc32)c(=O)n1N	-12%[15.4 µM]	9%	0.8	-3%	-1.2%	-5.3	x
34	Cc1ccc(-c2nnn(CC(=O)N(CC(=O)NC(C)C)c3cnc4ccccc4c3)n2)o1	-24%	15%	5.4	-4%	x	2.3	-1.7%
35	CCOc1ccc(-c2cn(-c3ccc(OC)cc3)c(SC)n2)cc1	-2%[15.4 µM]	u	1.0	-2%	3.8%	-6.5	u
36	Cc1cccc(C)c1NC(=S)N1CCOCC1	-5%[15.4 µM]	16%	1.7	7%	1.2%	2.7	-1.1%
37	O=c1cc(-c2cccnc2)oc2c1ccc1ccccc12	0%[15.4 µM]	25%	2.3	u	-1.4%	14	x
38	COc1ccccc1CNC(=O)C(CC(C)C)NS(=O)(=O)c1ccc2c(c1)oc(=O)n2C (stereo unspecified)	-15%	12%	0.6	-3%	2.9%&6.4%	-6.6	-0.6%&1.8%
39	COCc1cc(C)nc(SCC(=O)NCC2CCCO2)c1C#N (stereo unspecified)	13%	13%	0.1	0%	-0.5%	-2.2	x
40	Cc1ccccc1-n1c(N)cc(=O)[nH]c1=S	-13%	7%	-0.7	4%	-2.1%[38.3 µM]	-0.3	-1.0%
41	O=C(CCN1C(=O)c2ccccc2C1=O)NC(=S)Nc1ccccc1Cl	-2%[15.4 µM]	0%	-4.1	u	-1.0%	-3.5	x
42	COc1ccc(CC2SC(N)=NC2=O)cc1 (stereo unspecified)	4%[15.4 µM]	17%	-0.3	0%	-1.0%	-0.5	-0.1%
43	CCOC(=O)c1cnc2cc(F)c(F)cc2c1N1CCOCC1	28%	-3%	-4.7	-5%	-1.1%	6.1	x
44	CCOC(=O)N1CCC(N(C(=O)Nc2cccc(OC)c2)C(C)CC)CC1 (stereo unspecified)	-13%	6%	5.8	-6%	2.9%[38.3 µM]	2.5	-2.2%
45	O=C(CCn1[nH]c(=O)c2ccccc2c1=O)N1CCOCC1	13%	28%	3.4	2%	-1.2%	1.0	-5.6%
46	CCOC(=O)NN1C(=O)c2ccccc2NC1c1cccc(O)c1 (stereo unspecified)	-6%	12%	0.3	9%	1.1%	-2.6	32µM*
47	O=C(CNS(=O)(=O)c1ccc(Br)s1)N1CCN(c2ccc(F)cc2)CC1	-5%[15.4 µM]	3%	-1.6	-28%	-2.6%&2.7%	-4.2	1.4%&0.0%
48	COc1c(C)cc(C(=O)C2CCCN(Cc3ccc(Oc4ncccn4)cc3)C2)cc1C (stereo unspecified)	-33%[inhibitor]	22%	-2.0	-7%	2.6%	-1.3	1.9%
49	Cc1ccc2nc(-c3cccc(S(=O)(=O)N4CC(C)OC(C)C4)c3)cn2c1 (stereo unspecified)	u	11%	0.8	-12%	2.3%	0.6	-29%
50	CCc1ccccc1NC(=O)CCNS(=O)(=O)c1cc(Br)cnc1N	18%	18%	x	-2%	-0.5%	-5.1	-16%
51	CC1CC(C)CN(C(=O)c2cc3c(=O)n4ccccc4nc3s2)C1 (stereo unspecified)	8%[15.4 µM]	13%	5.6	8%	0.7%	1.4	x
52	CCc1ccc(OCC(=O)Nc2ccc(S(=O)(=O)Nc3ccccn3)cc2)cc1	16%[15.4 µM]	-1%	x	-1%	-0.1%	1.2	x
53	COc1ccc(CCNCCC(c2ccccc2)c2ccccc2)cc1OC	0%	x	x	x	23%	-5.2	-0.5%
54	CCN1/C(=C(\O)c2ccccc2)C(=O)c2ccccc2S1(=O)=O	-19%	21%	2.9	-11%	0.3%	-2.5	0.6%
55	COc1ccc(S(=O)(=O)CCC(=O)Nc2cc(C)ccc2OC)cc1	-6%	50µM*	0.0	0%	-0.7%	3.4	-3.1%
56	CC(=O)Nc1cccc(NC(=O)CSc2n[nH]c(-c3ccccc3)n2)c1	u	x	x	8%	0.1%	4.3	-0.9%
57	COc1ccc(C(=O)COC(=O)c2ccccc2C(=O)N(C)c2ccccc2)c(OC)c1	17%[15.4 µM]	x	x	-5%	-1.7%	0.5	-2.7%
58	Clc1ccc(NCc2nnc3n2CCCCC3)cc1	8%	-7%	-1.9	2%	-1.2%	-1.1	-1.4%
59	COc1ccc2oc(=O)c(C(=O)n3ccc(C)n3)cc2c1	u	-3%	1.5	9%	6.0%[38.3 µM]	-1.0	116%
60	CSc1ccc(CN2CCC(Cc3ccccc3)CC2)cc1	4%	-10%	1.9	7%	17%	-2.0	1.2%
